AID504770 – growth inhibitors of E. coli YBA685 in a screen for V. cholerae RctB (chromosome II replication) inhibitors. z-score (concentration not given with the values). 130,000 compounds, 0.27% hits. E. coli YBA685 rctB-dependent plasmid, OD600 growth, 3 h; hits give low values;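 active = z-score under -2 on both plates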;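 note: wells of about 30 µL received 100 nL stock; score is relative to mean and SD of the test wells; the first replicate is given; strong numbers were not always called active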
Ba CapD inh – blocks the Bacillus anthracis CapD enzyme | 140,000 compounds, 0.23% hits | AID 492967 | z-score (test concentration not listed) | purified CapD enzyme, fluorescence intensity read-out; hits give low values; some hits fall short of the stated cut;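 active = z-score under -4 in either of two replicates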;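 note: stock transfer was 100 nL into about 40 µL; score is relative to mean and spread of the plate; one replicate is shown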
Active calls of the source: *; i = inactive; . = no result given. No enrichment for hits; about 0.39% have a hit in one of these screens.

mol | Ba CapD inh | AID504770
O=C(COc1ccccc1)N1N=C2CCCCCC2C1(O)C(F)(F)F (stereo unspecified) | -0.28 | .
COC(=O)c1cn(NC(=O)C(c2ccccc2)C2CCCC2)c(=O)c2ccccc12 (stereo unspecified) | -0.025 | .
COC(=O)c1cc(Br)c(Br)s1 | -0.7 | -0.1
COC(=O)c1ccc(/C(O)=C(\C#N)c2nc3ccccc3s2)cc1 | -0.79 | -0.8
CCCn1c(=O)c2c(nc3n2CCCN3Cc2ccco2)n(C)c1=O | 0.14 | 0.25
CCS(=O)(=O)c1ccc2oc(SCC(=O)Nc3ccc(Br)cc3F)nc2c1 | . | 0.3
Cc1ccc(-n2c(=O)[nH]c(=O)c3sc(N)nc32)cc1 | 0.3 | 0.45
O=C(CCn1c(=O)c2cccn2c2cccnc21)NC1CCCC1 | 15 | 3
CCOC(=O)CCN1CCCCC1 | . | -0.7
CN(C)CCNc1cc(-c2ccncc2)nc2ccccc12 | 4.5 | 1.2
Cc1ccc(S(=O)(=O)NCC(=O)O)cc1 | 0.58 | -0.85
COc1cc2c(cc1OC)CN(C(=O)CNC(=O)C13CC4CC(CC(C4)C1)C3)CC2 | . | -0.6
Oc1ccc(-n2nnnc2SCc2c(F)cccc2Cl)cc1 | -0.51 | .
CCCC(O)c1ccco1 (stereo unspecified) | 0.21 | 0.5
O=C(Cn1nc(-c2ccccc2)ccc1=O)NCC1CCCO1 (stereo unspecified) | 1.5 | 2.3
Cc1cc(C)c(C#N)c(S(C)(=O)=O)n1 | . | 1.2
Cc1cc(C)nc(NS(=O)(=O)c2ccc(NC(=O)CSc3nc4c(cc3C#N)CCC4)cc2)n1 | 0.25 | .
COc1ccccc1N1CCN(c2cc(N3CCCC3)nc(C)n2)CC1 | . | -0.25
CC(C)c1nnc(NC(=O)CCN2C(=O)c3ccccc3C2=O)s1 | -0.23 | .
O=C(NCCOc1cccc(C(F)(F)F)c1)c1cccc(NC2=NC3CS(=O)(=O)CC3S2)c1 (stereo unspecified) | -0.47 | -0.9
COc1cccc(CN2CCN(CCOC(=O)N3CCN(c4cccc5[nH]ccc45)CC3)CC2)c1 | 0.54 | .
O=C(NCc1csc(-c2cccs2)n1)C1=Cc2ccccc2OC1 | 0.35 | 0.65
Cc1ccc(OCCn2cc(C(=O)c3ccccc3)c3ccccc32)cc1 | 0.58 | 0.45
COc1ccc(OC)c(Sc2nc(C)c([N+](=O)[O-])c(C)c2C#N)c1 | -0.6 | .
CCN(CC)C(=O)Nc1ccc(S(=O)(=O)NC)cc1 | -0.22 | -1
CS(=O)(=O)NCC1CCCO1 (stereo unspecified) | . | 2
CSc1ccc(NC(=O)NC2CCN(c3ncccn3)CC2)cc1 | 0.83 | -1.2
CCOC(=O)C1=C(C)OC(N)=C(C#N)C12C(=O)Nc1ccc(F)cc12 (stereo unspecified) | -0.14 | .
CCc1c(C(C)O)oc2ccc3c(C)cc(=O)oc3c12 (stereo unspecified) | 4.8 | 0.3
CC(=O)c1ccc(N2CCN(C(=O)CCCN3C(=O)C4C5C=CC(C5)C4C3=O)CC2)cc1 (stereo unspecified) | -1.2 | .

Looked up by compound from the entries so far:
mol | Ba CapD inh | AID504770
Cc1cc(C)c(C#N)c(S(C)(=O)=O)n1 | . | 1.2
O=C(NCc1csc(-c2cccs2)n1)C1=Cc2ccccc2OC1 | 0.35 | 0.65
CS(=O)(=O)NCC1CCCO1 (stereo unspecified) | . | 2

Exported with each value named: part of the list above
COC(=O)c1cc(Br)c(Br)s1
  Ba CapD inh: -0.7	AID504770: -0.1
COC(=O)c1ccc(/C(O)=C(\C#N)c2nc3ccccc3s2)cc1
  Ba CapD inh: -0.79	AID504770: -0.8
CCCn1c(=O)c2c(nc3n2CCCN3Cc2ccco2)n(C)c1=O
  Ba CapD inh: 0.14	AID504770: 0.25
CCS(=O)(=O)c1ccc2oc(SCC(=O)Nc3ccc(Br)cc3F)nc2c1
  Ba CapD inh: .	AID504770: 0.3

The list goes on:
mol | Ba CapD inh | AID504770
O=C(CCC(=O)N1CCC(C(O)(c2ccccc2)c2ccccc2)CC1)Nc1ccc(Br)cn1 | -0.53 | .
O=C(Nc1cc(Cl)cc(Cl)c1)c1cc2n(n1)C(C(F)(F)F)CC(c1ccc3c(c1)OCO3)N2 (stereo unspecified) | 0.18 | .
Cn1c(-c2ccccc2)cnc1SCc1ccccc1 | . | 2.2
O=C(NNC(=NS(=O)(=O)c1ccccc1)NNC(=O)c1ccc(F)cc1)c1ccc(F)cc1 | 0.055 | .
O=C1C2C3C=CC(O3)C2C(=O)N1OCc1c(F)cccc1Cl (stereo unspecified) | 0.66 | 2.2
CC(c1ccc(F)cc1)N1CCCC1 (stereo unspecified) | . | -1.1
Cc1c(/C=N/N)c2ccccn2c1C#N | . | 0.7
COc1ccc(S(=O)(=O)n2c(=O)cnc3ccccc32)cc1 | . | 0.85
Cc1cc2c(=O)oc(-c3cccc4ccccc34)nc2s1 | -0.49 | -0.3
C=CCSc1nc(Oc2ccccc2)c2sc3ccccc3c2n1 | -0.22 | .
CC(C)c1ccc(-c2noc(C3CCCN(S(C)(=O)=O)C3)n2)cc1 (stereo unspecified) | . | 0.5
O=C1Cn2c(nc3ccccc3c2=O)CN1Cc1ccc2c(c1)OCO2 | . | 1.1
O=S(=O)(c1ccccc1)c1ccc(S(=O)(=O)N2CCCC2)s1 | -0.27 | -0.1
CC(c1ccccc1)N1C(=O)CSC1=S (stereo unspecified) | -0.52 | -1.2
O=C(Nc1nc(-c2cc3ccccc3oc2=O)cs1)c1c(F)cccc1F | i | -0.5
CN(C)S(=O)(=O)c1ccc(C(=O)Nc2c(C(=O)Nc3ccccc3F)oc3ccccc23)cc1 | 8 | 0.95
CC1CC(=O)N(CC(=O)NCc2ccc(F)cc2)c2ccccc2S1(=O)=O (stereo unspecified) | . | -1.4
COC(=O)CSC(C)c1nc2ccccc2c(=O)[nH]1 (stereo unspecified) | . | -0.4
Cc1cc(C)c(NC(=O)CCn2nnc3ccccc32)c(C)c1 | . | 1.5
COc1cccc(C=NCCCC2C=NNC2=O)c1O (stereo unspecified) | -0.17 | .
C=CCOC(=O)NC1CCN(S(=O)(=O)c2ccc(Cl)cc2)CC1 | -0.65 | .
CCCCCCc1ccc(C(=O)NNC(=O)c2cc3ccccc3s2)cc1 | 0.87 | .
NNC(=O)CCc1cccc(S(=O)(=O)N2CCOCC2)c1 | . | -0.05
NNC(=O)Cn1c2ccccc2c2nc3ccccc3nc21 | 0.22 | .
Cc1cc(C(=O)CSc2ccc(Cl)cc2)cc(C)c1OC(=O)N(C)C | -0.14 | .
CCc1c(C)c2c(C)nn(-c3ccccc3)c2[nH]c1=O | 1.8 | -1
CCOC(=O)N1CCN(CN2C(=O)NC(c3ccccc3)(c3ccccc3)C2=O)CC1 | . | -0.35
CC(C)(C)C(=O)Nc1nc(-c2ccc(Cl)s2)cs1 | -1.3 | 2.7
COc1ccc(C)cc1NC(C)C(=O)NC(=O)NC1CCCCC1 (stereo unspecified) | . | 0.7
CC1Cc2ccccc2N1C(=O)COc1ncnc2c1cnn2-c1ccccc1 (stereo unspecified) | . | 0
Clc1ccc(C2Nc3ccccc3-n3cccc32)cc1 (stereo unspecified) | 5.1 | 2.1
CC1=C(C(=O)Nc2cc(C)ccn2)C(c2ccsc2)C2=C(CC(C)(C)CC2=O)N1 (stereo unspecified) | 3.7 | .
Cc1ccc(C(=O)[C@@H]2[C@@H](c3cccc(F)c3)C(C#N)(C#N)[C@H]3C=Cc4cc(Cl)ccc4N23)cc1 | 0.045 | .
COc1cc2c(cc1OC)C(C)N(CCC(N)=O)CC2 (stereo unspecified) | -0.88 | 0
CC1CCN(S(=O)(=O)c2ccc(C(=O)Nc3c(C(N)=O)oc4ccccc34)cc2)CC1 | . | 1.3
COc1ccc(C2CC(C(F)(F)F)n3ncc(C(=O)Nc4ccc(Cl)c(C(F)(F)F)c4)c3N2)cc1OC (stereo unspecified) | 0.24 | .
COCCn1c(SCC(=O)N2CCNC2=O)nc2ccccc21 | . | 0
N#CCCn1cc(C(=O)n2nnc3ccccc32)c(-c2ccccc2)n1 | 0.28 | 0.3
CC1(C)c2ssc(=S)c2-c2ccccc2N1C(=O)C1CC1 | -0.075 | .
CCOc1cc(C2C(C#N)=C(N)Oc3n[nH]c(-c4cccc([N+](=O)[O-])c4)c32)ccc1OC (stereo unspecified) | -0.82 | .
CCc1cc2c(=O)c(-c3nc4ccccc4s3)coc2c(CN(CC)CC)c1O | -0.035 | 0.8
CC1Cc2cc(/C=C3\N=C(c4ccccc4F)OC3=O)ccc2O1 (stereo unspecified) | -0.055 | 0.15
COc1ccc2c(c1)-c1c(ssc1=S)C(C)(C)N2C(=O)CN1CCC(C)CC1 | 0.075 | .
O=C1NC(=S)NC(=O)C1=Cc1ccccc1OCCOc1ccc([N+](=O)[O-])cc1 | -2.7 | .
Cc1ccnc2c1C(=O)c1cc([N+](=O)[O-])ccc1-2 | -0.075 | .
C=C1C(C(=O)Nc2ccc(N(C)C)cc2)C1C(=O)Nc1ccc(N(C)C)cc1 (stereo unspecified) | . | 0.45
O=C(CCn1c(=O)c2cccn2c2cccnc21)NCCCc1ccccc1 | 5 | -0.25
CC(C)c1ccc(NC(=O)CSC(=O)c2ccccc2)cc1 | -0.71 | 0.05
CSc1nc(-c2ccccc2)nc2c1Cc1c(CO)cnc(C)c1O2 | -0.12 | 0.05
O=C(NC1CCS(=O)(=O)C1)c1cc(-c2ccccc2)nc2ccccc12 (stereo unspecified) | 20 | -0.3
CC1=C(C(=O)OC2CCCCCCC2)C(c2ccc(Cl)c(Cl)c2)NC(=O)N1 (stereo unspecified) | 0.27 | -0.2
N#CC(c1ccccc1F)(c1ncc(C(F)(F)F)cc1Cl)N1CCOCC1 (stereo unspecified) | -0.77 | .
Cc1oc2c(F)c(F)c(F)c(F)c2c1-c1noc(C(C)(C)C)n1 | 0.54 | 2
CC(SC1=NCCN1S(C)(=O)=O)c1ccccc1 (stereo unspecified) | -0.13 | 0.5
COc1c(CC(NC(C)=O)C(=O)O)cccc1OCC1CCCC1 (stereo unspecified) | -0.035 | -0.05
CNC(=O)/C(C#N)=C\c1ccc(Sc2ccccc2)o1 | -1.4 | -0.4
CC1=C(C(=O)OC2CCCCCCC2)C(c2ccccc2C(F)(F)F)CC(=O)N1 (stereo unspecified) | -0.12 | 0
O=C(O)c1ccc(NS(=O)(=O)c2cccc3cccnc23)cc1 | -0.96 | -0.5
COc1ccc(CCNC(=O)C2CCN(S(=O)(=O)N3CCCCC3)CC2)cc1OC | -0.33 | 0.1
Cc1ccc(S(=O)(=O)NC(C(=O)O)C(C)C)cc1C (stereo unspecified) | . | -0.1

(listing goes on)
mol | Ba CapD inh | AID504770
CCOc1ccc(/C=C/C(=O)CCC(=O)O)cc1 | 0.065 | 0.65
COC(=O)c1c(NC(=S)NCCn2cc(Br)cn2)sc2c1CCC(C)C2 (stereo unspecified) | -0.41 | -0.25
Cn1cccc1C(=O)OCC(=O)c1ccc2c(c1)OCCO2 | . | -1.2
COc1ccc(/C=C(\NC(=O)c2ccccc2)C(N)=O)cc1 | . | -0.45
CCOC(=O)N1CCC(Nc2nc(NCCC3=CCCCC3)nc(N3CCOCC3)n2)CC1 | -0.47 | .
CCOC(=O)c1cc(S(=O)(=O)NC(CC)c2cccs2)cn1C (stereo unspecified) | -0.48 | -0.2
NNC(=O)C12CCCC(CCC1)C2 | -0.18 | 0.05
CCNc1nc(NC(C)C)nc(NS(=O)(=O)c2ccc(N)cc2)n1 | 0.11 | .
N#Cc1c(N2CCN(C(=S)NCc3ccccc3)CC2)nc(-c2ccco2)c2c1CCCC2 | 5.6 | 0.7
COc1ccc(S(=O)(=O)N(CC(N)=O)Cc2ccccc2)cc1OC | 0.32 | 0.3
O=C(c1ccc(F)cc1)N1CCN2C(=O)c3ccccc3C12c1ccccc1 (stereo unspecified) | -0.21 | .
CC(=O)N1CCN(Cc2nc3ccc(Cl)cc3n2CCO)CC1 | . | 0.1
COc1ccc(-c2cn3c(C)c(C(=O)Nc4ccccc4)sc3n2)cc1 | 0.06 | 1.6
Nn1c(SCC(=O)Nc2ccccc2)nnc1C1CCCCC1 | . | -0.6
CC(=O)N1c2ccc(S(=O)(=O)N(C)C3CCCCC3)cc2CC1C (stereo unspecified) | -1 | 0.4
CN(C)c1ccc(N/C(N)=N/c2nc(C(F)(F)F)cc(C(F)(F)F)n2)cc1 | -0.41 | 0.3
COc1ccc(OC)c(N=c2ssc3c2-c2ccc(C)cc2NC3(C)C)c1 | -1.1 | .
COc1ccc2c(c1)C(=O)N(c1ccccc1OC)C(=O)C2(Cc1c(C)noc1C)Cc1c(C)noc1C | . | -0.8
COc1ccccc1NC(=O)C1=C(C)NC(=O)NC1c1ccc(OC)c(OC)c1 (stereo unspecified) | -0.42 | .
COc1ccc(-c2nc3ccc(C(=O)N4CCN(c5cc(Cl)ccc5C)CC4)cc3nc2-c2ccc(OC)c(OC)c2)cc1OC | -1.6 | .
c1nc2n(n1)C1=C(CCCC1)C1(CCCCC1)N2 | . | -0.9
Cc1ccc(S(=O)(=O)N2CCCN(C(=O)CN3CCOCC3)C2c2ccccc2)cc1 (stereo unspecified) | -1.3 | 1.9
Cc1noc(C)c1COC(=O)CSc1ncnc2sccc12 | . | -0.95
COc1cccc(Nc2nc(N)nc(CN3CCCCC3)n2)c1 | . | -0.3
Nc1c(S(=O)(=O)c2cccs2)c2nc3ccccc3nc2n1Cc1cccs1 | . | -0.75
O=C(Cn1ncn2c(cc3ccccc32)c1=O)N1CCN(C(=O)c2ccco2)CC1 | 11 | 3.5
Cc1nn(-c2ccccc2)c(C)c1Cc1ccc(O)cc1 | 0.14 | -0.65
